Screens as filed in PubChem BioAssay.
Bfl-1 A1 inh: inhibitors of the anti-apoptotic protein A1, read as caspase activation | MEF A1-2A-BIM cells, Caspase-Glo 3/7 luminescence, 3 h; percent of clofoctol response, vehicle zero | caspase activation, % (test concentration not listed) | hit rate 0.066% among 330,000 | AID 2462;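 active = over half of replicate activation scores above 10%, or exactly half above 10 with the replicate mean above 10; inconclusive = replicate mean below 10 yet half the replicates above 10; inactive = over half of replicates below 10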;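 also: wells of about 30 µL received 50 nL stock; many hits fall short of the cut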
Beta apoptosis: blocks beta cell apoptosis. INS-1E cytokine-induced death, ATP luminescence, 48 h; percent of positive-control rescue, neutral wells zero. protection from apoptosis, % (test concentration not listed). hit rate 0.8% among 300,000. AID 435005;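 active = all replicates at 75% or more, or half of them and the mean; inconclusive = half reach 75% but not the mean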;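 also: 0% = cytokine-treated negative control wells and 100% = positive control rescue; higher means more ATP so stronger rescue from cytokine killing; wells of about 40 µL received 100 nL stock; the first replicate is given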
Beta2AR agonist: activates human beta-2 adrenergic receptor causing internalization. P07550. Am2.2-beta2AR cells, FAP receptor internalization, flow cytometry; reference of the scale not given here. response, % (test concentration not listed). hit rate 0.43% among 340,000. AID 504454;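 active = response above a set limit, near 3 SD of response in nonfluorescent compounds, cut at about 42% in these data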;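 also: stock transfer was 100 nL into about 11 µL; a reference agonist was the positive control; negative values mostly stem from fluorescent compounds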
LANA-H2B inh: blocks KSHV LANA binding to histone H2A/H2B; hit rate 0.6% among 320,000; cell-free LANA-H2A/H2B peptide, fluorescence polarization; inhibition, % (no concentration beside the values); Q9QR71; in the data active = inhibition mostly above about 10%, no sharp cut-off; inactive = mostly below about 6.7%;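 also: stock transfer was 7.5 nL into about 10 µL; 0% = median of vehicle wells and 100% = median of positive control wells; one replicate is shown; the record names a cut of 25% in any replicate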
Target sequence (Q9QR71 whole entry, looked up): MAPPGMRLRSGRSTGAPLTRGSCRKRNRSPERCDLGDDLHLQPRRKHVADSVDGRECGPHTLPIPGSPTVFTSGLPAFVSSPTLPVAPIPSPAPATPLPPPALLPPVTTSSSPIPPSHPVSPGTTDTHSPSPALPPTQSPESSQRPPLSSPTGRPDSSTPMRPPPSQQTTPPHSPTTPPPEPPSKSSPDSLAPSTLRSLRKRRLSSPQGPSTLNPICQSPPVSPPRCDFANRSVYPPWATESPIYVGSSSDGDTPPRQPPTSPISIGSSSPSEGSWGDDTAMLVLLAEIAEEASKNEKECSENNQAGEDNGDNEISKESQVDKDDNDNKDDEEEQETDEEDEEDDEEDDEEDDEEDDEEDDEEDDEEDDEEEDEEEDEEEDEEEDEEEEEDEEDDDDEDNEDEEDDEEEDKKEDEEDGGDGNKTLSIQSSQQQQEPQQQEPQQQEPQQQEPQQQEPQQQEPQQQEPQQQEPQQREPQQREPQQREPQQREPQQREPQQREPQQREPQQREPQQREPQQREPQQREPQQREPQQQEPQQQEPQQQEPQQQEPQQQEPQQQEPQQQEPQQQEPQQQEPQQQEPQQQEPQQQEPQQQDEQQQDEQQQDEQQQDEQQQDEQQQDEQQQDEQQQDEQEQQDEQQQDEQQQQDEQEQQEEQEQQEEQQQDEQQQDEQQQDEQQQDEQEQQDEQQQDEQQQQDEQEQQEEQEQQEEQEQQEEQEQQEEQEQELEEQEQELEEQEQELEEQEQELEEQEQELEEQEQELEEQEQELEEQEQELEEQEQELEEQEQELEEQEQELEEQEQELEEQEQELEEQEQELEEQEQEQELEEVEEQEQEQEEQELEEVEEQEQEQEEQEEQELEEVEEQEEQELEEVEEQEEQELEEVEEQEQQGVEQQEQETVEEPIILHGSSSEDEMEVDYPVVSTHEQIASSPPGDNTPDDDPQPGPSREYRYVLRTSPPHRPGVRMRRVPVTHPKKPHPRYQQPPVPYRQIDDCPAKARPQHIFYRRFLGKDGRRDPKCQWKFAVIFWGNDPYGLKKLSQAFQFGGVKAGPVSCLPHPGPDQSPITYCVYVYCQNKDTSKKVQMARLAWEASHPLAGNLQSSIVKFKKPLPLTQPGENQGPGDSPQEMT
RanGTP-Imp inh: inhibitors of RanGTP-importin-beta interaction, primary screen, biochemical, FRET, CFP-Ran, YFP-importin-beta, homogeneous. AID 2216. cell-free CFP-Ran/YFP-importin-beta FRET ratio. inhibition, % (no concentration beside the values). hit rate 1.1% among 300,000;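 active = most replicates above 15%; inconclusive = exactly half above 15%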;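 also: 0% = DMSO wells and 100% = Ran loaded with GDP instead of GTP; wells of about 40 µL received 100 nL stock; the first replicate is given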
Calb FLC: C. albicans growth modulation with fluconazole; hit rate 0.57% among 300,000; growth inhibition, % (no concentration beside the values); AID 1979; C. albicans CaCi-2 (fluconazole-resistant clinical isolate) + fluconazole, Alamar Blue growth, 48 h;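 active = most replicates above 75%; inconclusive = exactly half above 75%; inactive = most below 75%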;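 also: all wells also contain fluconazole at 8 µg/ml as a sub-toxic cotreatment; 0% = median of DMSO wells and 100% = median of geldanamycin control wells; wells of about 8 µL received 7.5 nL stock; the first replicate is given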
T cruzi repl: T. cruzi replication inhibition; T. cruzi beta-gal in NIH3T3, luminescence, 90 h; inhibition, % (concentration not given with the values); hit rate 1.4% among 300,000; AID 1885;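 active = mean inhibition across valid replicates above about 55%, limit read from the data; inconclusive = mean below that limit but half or more replicates reach it; inactive = mean below it, under half of replicates reach it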;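 also: signal also drops with host cell toxicity which is not excluded here; 0% = plate median of DMSO wells and 100% = zero luminescence signal; higher percent means less beta-gal luminescence so fewer parasites; stock transfer was 50 nL into about 50 µL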
UCH37 DUB inh: blocks the human deubiquitinase UCH37; Q9Y5K5; purified proteasome/UCH37, Ub-AMC cleavage fluorescence; inhibition, % (no concentration beside the values); hit rate 0.33% among 330,000;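 active = mean of two replicates above 20%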;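 also: 0% = compound-free wells with enzyme and 100% = wells lacking proteasome; stock transfer was 100 nL into about 20 µL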
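Material: Human UCH37 enzyme supplied as purified proteasome complex | Schedule: 30 min compound-proteasome preincubation then 25 min substrate reaction, room temperature | Detection: AMC fluorescence from Ub-AMC cleavage, excitation 355 nm, emission 460 nm | Benchmarks: Wells without proteasome as full block, compound-free enzyme plus substrate as uninhibited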
Starred values were filed as active, the others as inactive; i = inactive; ? = inconclusive; / = not tested or not shown.

SMILES	Bfl-1 A1 inh	Beta apoptosis	Beta2AR agonist	LANA-H2B inh	RanGTP-Imp inh	Calb FLC	T cruzi repl	UCH37 DUB inh
O=C(Nc1ccc2oc(=O)ccc2c1)c1cc2ccccc2o1	1.1	12	-11	-0.2	0.7	3	-2	-2.4
Cc1nn(C)cc1CN(C)Cc1c(C(=O)N(C)Cc2ccccc2)nc2ccccn12	-0.5	-2	12	-2.7	0.9	-10	16	-1.5
Fc1ccc(NCc2ccccc2F)cc1Cl	-0.1	-21	6	1.0	-4.3	2	1	2.0
COc1cc(CNc2ccc(N3CCCC3)cc2)ccc1OCc1ccccc1	-3.2	14	-2	-0.2	/	/	/	2.5
CN(C)S(=O)(=O)c1cccc(NC(=O)COC(=O)CCC(=O)c2ccc(F)cc2)c1	-0.9	0	9	-0.6	-4.7	8	-20	3.2
Cc1ccc(CNC(=O)c2ccc(NC3=NC4CS(=O)(=O)CC4S3)cc2)cc1 (stereo not given)	0.5	2	-1	-3.9	-1.1	-12	4	0.4
Cc1cc(NC(=O)CSc2nnc(C3CC3)n2-c2ccccc2)no1	0.5	-6	11	2.5	-0.4	-2	5	3.1
Cn1c(=O)[nH]c(=O)c2c1nc(NCc1ccco1)n2CCCc1ccccc1	/	/	-5	22	-0.6	-1	-2	-0.8
Cc1cc(Cl)ccc1NC(=O)C1CCN(S(C)(=O)=O)CC1	0.8	-4	1	3.6	4.6	5	1	1.3
Cc1cccc(NC(=O)C2CCCN(S(=O)(=O)c3cccc4nsnc34)C2)c1 (stereo not given)	0.1	-5	1	-1.1	-4.7	-9	-14	0.6
CC1SC2(NC1=O)C1CC3CC(C1)CC2C3 (stereo not given)	-0.2	-2	1	1.0	5.1	14	13	1.6
COc1ccc(C(CC(=O)N2CCCCC2)c2c(OC)cc(OC)c3ccc(=O)oc23)cc1 (stereo not given)	1.3	-11	-10	1.0	0.7	26	-6	-3.6
CCc1noc(C)c1C(=O)OCC(=O)Nc1ncc(Cl)cc1Cl	-0.4	/	-7	-1.7	1.7	1	-12	/
O=C(/C=C/c1ccc(Cl)cc1Cl)Nc1ccc(CN2CCOCC2)cc1	1.4	3	9	-5.7	-0.2	39	17	5.6
CCOc1c(CNCCN2CCOCC2)cccc1OC	-0.5	-3	1	-1.7	-7.2	-24	-5	1.6
COc1cc(C(=O)N2CCN(C(=O)C3CC3)CC2)cc(OC)c1OC	0.1	2	0	6.8	-3.2	0	-1	0.1
CC(=O)c1ccc(N2CCN(C(=O)Nc3ccc(C)cc3)CC2)cc1	0.0	14	-12	4.0	0.5	-3	-13	-5.7
O=C(c1ccco1)N1CCN(c2nc3ccsc3c(=O)s2)CC1	0.8	4	-10	3.7	?	2	-6	1.4
CCCc1cc(=O)n2[nH]c(-c3ccc(OC)cc3)nc2n1	0.0	-6	-4	0.1	1.7	11	-10	0.7
CCOc1ccc(-c2ccc(SCc3ccccn3)nn2)cc1	-0.5	-1	-4	2.1	-0.5	?	-5	3.4
CN(C)CCCNC(=O)/C(=N\O)c1ccccc1	0.6	-16	12	-1.8	-0.1	1	-18	/
CCOC(=O)N1CCN(C(=O)CCn2c(=O)[nH]c3ccsc3c2=O)CC1	0.7	-8	-4	-9.7	-3.9	8	-5	2.5
Cc1c(C(=O)N2CCN(c3ccccc3)CC2)oc2c1C(=O)CC(C)(C)C2	1.1	-7	-2	-2.9	-0.1	10	2	4.7
CCc1ccc(S(=O)(=O)Nc2ccc(-c3nc4cccnc4s3)cc2)s1	0.2	3	3	-2.2	40*	1	-5	i
CC1(C)CC(=O)c2sc(NC(=O)CN3CCOCC3)nc2C1	-0.1	-3	6	-0.3	0.8	5	-12	-3.3

Records listed above printed as active in RanGTP-Imp inh.
Compound,Beta2AR agonist,LANA-H2B inh,RanGTP-Imp inh,UCH37 DUB inh
CCc1ccc(S(=O)(=O)Nc2ccc(-c3nc4cccnc4s3)cc2)s1,3,-2.2,40*,i

Going on with the list.
SMILES	Bfl-1 A1 inh	Beta apoptosis	Beta2AR agonist	LANA-H2B inh	RanGTP-Imp inh	Calb FLC	T cruzi repl	UCH37 DUB inh
CN1CCCN(C(=O)c2ccc(Cl)c(S(=O)(=O)N(C)c3ccccc3)c2)CC1	-0.2	1	2	-4.2	2.0	1	36	2.9
O=C1[C@H]2[C@@H](c3ccc(Cl)cc3)N3C(=O)N(c4cccc(F)c4)C(=O)[C@@]3(Cc3ccc(Cl)cc3)[C@H]2C(=O)N1C1CCCCC1	-0.1	21	3	-3.6	-1.0	1	61*	1.7
COc1ccc(F)cc1S(=O)(=O)N1CCCCC1	1.1	-3	-5	6.2	-3.1	-6	-3	0.0
CC(=O)Nc1cc(-c2nc3ccccc3o2)ccc1Cl	2.5	-10	-3	-1.2	1.4	6	7	-5.5
COc1ccc(C(=O)/C(=C\N(C)C)n2nc(C)cc2C)cc1	0.6	-3	3	-1.8	-0.8	4	-18	3.1
Cc1cc(C)cc(SCc2noc(C(=O)NCc3ccccc3)c2C(=O)NCc2ccccc2)c1	-1.5	6	0	3.5	-3.2	-16	23	0.0
O=[N+]([O-])c1ccc(N2CCOCC2)cc1NCc1ccccc1	0.7	5	5	1.6	7.3	13	/	4.4
COc1ccc(CCN2CC(C(=O)O)CC2=O)cc1 (stereo not given)	1.4	-2	-1	4.3	3.8	-8	-13	0.4
CC1CCC2(CC1)NC(=O)N(CC(=O)Nc1nc(-c3ccc(F)cc3)cs1)C2=O (stereo not given)	-0.9	-8	2	1.7	/	/	/	0.3
O=C(CNC(c1ccccc1)c1ccccc1)Nc1ccccc1F	-2.3	-5	4	-5.1	1.9	-10	2	2.1
O=S(=O)(c1ccccc1)N1CCN=C1SCc1cccc(Cl)c1	0.9	-17	-1	-4.2	-0.1	2	28	6.3
Cc1ccc(Cn2c(C3CCCN3c3nc(-c4ccc(F)cc4)cs3)nc3cc(Cl)c(Cl)cc32)cc1 (stereo not given)	-1.0	27	-4	-0.8	-1.0	-4	-11	2.9
CN(C)C(CNC(=O)CCNS(=O)(=O)c1ccccc1C(F)(F)F)c1ccccc1 (stereo not given)	0.3	-4	-1	-1.4	/	/	/	-2.4
O=C1C(=O)N(c2ccccn2)C(c2cccc([N+](=O)[O-])c2)/C1=C(/O)c1ccc(Br)cc1 (stereo not given)	-0.4	-6	-2	0.5	1.5	5	6	8.3
O=C(Nc1ccc(Cl)c(C(F)(F)F)c1)c1ccncc1	-1.2	2	7	0.0	-1.0	-7	-5	1.5
Cc1cc(C)cc(N(CCC#N)C(=O)CSc2nc3ccccc3c(=O)[nH]2)c1	0.8	-1	2	5.9	/	/	/	0.8
Cc1nn(-c2ccccc2)c(N)c1C1(O)C(=O)N(C(C)C)c2ccccc21 (stereo not given)	0.3	5	0	-0.9	-6.9	-4	-15	-2.0
CCN1C(=O)[C@@H]2[C@@H](c3ccc(-c4ccc(Cl)c(Cl)c4)c(OC)c3)N3CCCC[C@@]3(C(=O)OC)[C@@H]2C1=O	0.6	14	5	-3.4	-4.2	14	2	0.6
Cc1cccc(NC(=O)c2nc[nH]c2C(=O)Nc2cccc(C)c2)c1	-0.4	5	1	-2.3	0.2	-17	-5	-16
COCCNC(=S)N1CCN(c2nc(-c3ccc(F)cc3)cs2)CC1	0.3	-4	-1	18*	2.1	-16	-6	-1.0
Cc1cc(C)nc(NS(=O)(=O)c2ccc(NC(=S)NC(=O)C(C)(C)C)cc2)n1	1.2	8	1	-17	0.8	2	/	4.9
O=C1[C@@H]2[C@H](C(=O)N1n1cnnc1)[C@H]1C=C[C@@H]2C1	0.0	2	9	-2.6	-8.6	/	-17	-0.4
COc1ccc(C2C(C(=O)OC(C)C)=C(C)N=c3s/c(=C\c4cccs4)c(=O)n32)cc1 (stereo not given)	-0.2	0	-2	1.5	-0.9	?	48	/
O=C(Cc1cccs1)N1CCN(S(=O)(=O)c2cc(Cl)ccc2Cl)CC1	1.1	1	0	1.0	?	6	-6	0.6
CCCOC(=O)c1ccc(NC(=O)CCC(=O)OCC)cc1	/	-6	-2	-6.7	-1.7	5	-17	0.2

Among those listed so far, two have a CF3 group:
SMILES	Bfl-1 A1 inh	Beta apoptosis	Beta2AR agonist	LANA-H2B inh	RanGTP-Imp inh	Calb FLC	T cruzi repl	UCH37 DUB inh
CN(C)C(CNC(=O)CCNS(=O)(=O)c1ccccc1C(F)(F)F)c1ccccc1 (stereo not given)	0.3	-4	-1	-1.4	/	/	/	-2.4
O=C(Nc1ccc(Cl)c(C(F)(F)F)c1)c1ccncc1	-1.2	2	7	0.0	-1.0	-7	-5	1.5

Some entries already given with just UCH37 DUB inh and LANA-H2B inh.
| SMILES | UCH37 DUB inh | LANA-H2B inh |
| --- | --- | --- |
| O=C(Nc1ccc(Cl)c(C(F)(F)F)c1)c1ccncc1 | 1.5 | 0.0 |
| Cc1cc(C)cc(N(CCC#N)C(=O)CSc2nc3ccccc3c(=O)[nH]2)c1 | 0.8 | 5.9 |

Carrying on:
SMILES	Bfl-1 A1 inh	Beta apoptosis	Beta2AR agonist	LANA-H2B inh	RanGTP-Imp inh	Calb FLC	T cruzi repl	UCH37 DUB inh
C/C(=N\NC(N)=O)c1cc(Cl)cc(Cl)c1O	0.3	-2	-1	-1.5	3.6	20	-25	/
COc1ccc(-c2nc(C#N)c(NCCCN(C)C)o2)cc1OC	0.5	1	-4	3.9	0.5	4	12	-223
O=C1CN(C(=O)c2ccccc2Cl)c2ccccc2N1	0.9	-8	4	-4.0	-3.4	0	-1	-0.8
CSCCC(=O)N1CCC(n2nccc2NC(=O)CCc2ccccc2)CC1	-1.5	-6	7	1.8	-0.2	-3	-6	-0.7
CC12CC3(C)CC(C)(C1)CC(C(=O)NCC(=O)O)(C2)C3	-0.1	-8	-9	-1.3	2.8	13	-8	2.7
O=C(NCCNC(=O)c1cccnc1)c1ccc(Br)cc1	-0.4	/	-4	0.7	1.7	-6	-10	3.1
O=C(c1cccs1)N1CCN(c2nnc(-c3ccccc3)c3ccccc23)CC1	0.0	13	-3	2.9	-0.7	2	30	0.7
CCOC(=O)CC(=O)Nc1ccsc1C(N)=O	0.9	-6	5	-6.0	-0.9	2	-23	6.0
CCOC(=O)C1=C(C)Nc2nnnn2C1c1c[nH]c2ccccc12 (stereo not given)	-0.5	-6	/	-1.6	3.6	-2	9	/
CSCCC(NC(=O)c1ccccc1Br)C(=O)N1CCCCCCC1 (stereo not given)	-0.5	-4	0	0.0	1.7	-5	2	1.8
COc1cc(/C=C\C(=O)O)cc(S(=O)(=O)N2CCCCCC2)c1OC	/	/	-1	/	0.2	0	-3	2.7
O=C(/C=C\c1ccc(-c2ccccc2)o1)c1ccccc1	1.2	5	16	-0.4	-0.3	6	46	-1.4
COc1cc(C(C[N+](=O)[O-])c2c(C)[nH]c3ccccc23)cc(OC)c1OC (stereo not given)	0.0	-3	6	-2.9	-0.6	14	3	5.6
O=C(COC(=O)Cc1ccc(Br)cc1)NC1CC1	-0.2	-6	2	0.6	/	/	/	3.4
Cc1cccc(C)c1-n1c(C)cc(/C=N/NC(=O)c2ccncc2)c1C	0.0	8	11	12	-3.9	8	0	/
C/C(=C1/SC(N2CCCC2)=NC1=O)c1ccc(Br)cc1	0.4	-2	-2	2.6	-3.1	?	13	-4.3
